# Compound activity as filed in PubChem.
# PABP FP inh: PABP poly(A) RNA binding inhibitors, primary screen, biochemical, fluorescence polarization, uHTS; inhibition, % at 35 µM; 290,000 tested, 1% active;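 active = 50% or more with normal probe brightness, or confirmed in later tests; inconclusive = above 50% with abnormal brightness, or retests that disagree; inactive = below 50% or failed in later tests; about a fifth of its hits are not listed in these tables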;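 note: calls also rest on retests at 20 µM and on dose response follow-up; controls were probe without protein and protein plus probe with vehicle; some compounds called inactive have numbers as strong as hits; many hits fall short of the cut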
# Target sequence (P11940 whole entry, looked up): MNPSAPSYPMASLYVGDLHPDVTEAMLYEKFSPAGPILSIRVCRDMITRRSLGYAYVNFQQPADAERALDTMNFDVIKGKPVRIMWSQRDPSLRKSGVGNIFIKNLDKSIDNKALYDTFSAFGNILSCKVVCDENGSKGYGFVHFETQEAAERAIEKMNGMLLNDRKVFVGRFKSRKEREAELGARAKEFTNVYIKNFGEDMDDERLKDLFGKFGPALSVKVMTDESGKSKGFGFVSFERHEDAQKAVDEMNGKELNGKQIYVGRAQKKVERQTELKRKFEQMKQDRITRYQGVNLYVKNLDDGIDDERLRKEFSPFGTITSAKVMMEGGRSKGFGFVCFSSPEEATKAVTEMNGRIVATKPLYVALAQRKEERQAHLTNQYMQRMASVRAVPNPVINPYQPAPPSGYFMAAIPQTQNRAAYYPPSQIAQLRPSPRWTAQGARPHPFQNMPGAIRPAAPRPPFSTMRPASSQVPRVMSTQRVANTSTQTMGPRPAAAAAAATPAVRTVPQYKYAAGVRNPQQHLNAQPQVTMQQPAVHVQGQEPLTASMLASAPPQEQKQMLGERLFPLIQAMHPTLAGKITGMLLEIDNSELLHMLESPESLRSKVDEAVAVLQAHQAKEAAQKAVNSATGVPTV
# MT1-MMP act inh: blockers of MT1-MMP proenzyme processing, primary screen, HT1080 RFP-PRO-GFP cells, GFP/RFP fluorescence | GFP/RFP ratio change, % at 20 µM | AID 651647, 2012 | 360,000 tested, 0.061% active | GFP/RFP ratio fluorescence, overnight; percent of plate control window, DMSO zero;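 active = GFP/RFP ratio change of at least 30% with cell ATP level not reduced by more than half and red fluorescence within 50% of control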; note: strong numbers were not always called active
#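 Assay system: HT1080 RFP-PRO-GFP cells. Benchmarks: DMSO vehicle wells and RFP-L50D-GFP reporter cell wells. Times: overnight cell settling, then overnight compound exposure, 37 °C, 5% CO2. Compound: 20 µM single dose, 1% DMSO. Read-out basis: GFP/RFP fluorescence ratio.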
# Yeast UUG start: modulators of yeast start codon fidelity, primary screen, whole organism, S. cerevisiae, single point, plate reader; AID 602363, 2012; activity score, % at 18.7 µM; S. cerevisiae UUG-firefly luciferase reporter, luminescence/redox ratio; 350,000 tested, 0.13% active;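 active = replicate mean at a twofold rise or more, about +100% in these data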;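 note: firefly luciferase made from a UUG start codon reports start codon fidelity; reporter light over untreated wells divided by growth signal over untreated wells; some hits fall short of that in this replicate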
# Rce1 inhib: yeast Rce1p protease inhibitors, primary screen, biochemical, fluorescence, cell-free homogeneous; AID 2563, 2010; CAAX prenyl protease 2 (Saccharomyces cerevisiae (strain ATCC 204508 / S288c)), Q03530; yeast membranes, quenched prenylated peptide cleavage fluorescence; calls only; 290,000 tested, 0.27% active;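 active = fall in fluorescence gain of 50% or more versus controls, with final raw signal at or below 3038400; inconclusive = same 50% fall but final raw signal above 3038400; inactive = fall in fluorescence gain under 50%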;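 note: plate controls were neutral control wells for no effect and wells lacking membranes for full effect; tested at 10 µM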
# Target sequence (Q03530 whole entry, looked up): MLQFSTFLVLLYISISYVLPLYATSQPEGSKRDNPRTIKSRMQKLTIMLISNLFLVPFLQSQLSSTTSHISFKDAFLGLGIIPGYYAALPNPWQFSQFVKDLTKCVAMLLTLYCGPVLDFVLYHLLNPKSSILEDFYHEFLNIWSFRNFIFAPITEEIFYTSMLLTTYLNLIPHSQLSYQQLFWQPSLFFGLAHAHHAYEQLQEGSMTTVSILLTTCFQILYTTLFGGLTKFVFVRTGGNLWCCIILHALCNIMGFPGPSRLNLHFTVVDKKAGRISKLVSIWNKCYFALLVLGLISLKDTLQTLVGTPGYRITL
# CSC inhib: cancer stem cell viability inhibitors, primary screen, luminescence; cancer stem cell-like cells viability; 300,000 tested, 1.1% active; inhibition, % at 7.5 µM; AID 2717, 2010;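 active = mean at 75% or more and at least half the replicates too; inconclusive = mean and replicates disagree; tested in HMLE shEcad cells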;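 note: 0% = median of negative and 100% = median of positive control wells; the first replicate is given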
# eIF4H FP inh: human eIF4H binding inhibitors, primary screen, translation initiation inhibitor project, biochemical, uHTS, fluorescence polarization; eIF4H fluorescence polarization binding assay; inhibition, % at 35 µM; 290,000 tested, 0.94% active; AID 2012, 2009;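 active = 50% or more with normal probe brightness, or confirmed in later tests; inconclusive = above 50% with abnormal brightness, or retests that disagree; inactive = below 50% or failed in later tests; about a fifth of its hits are not listed in these tables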;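 note: calls also rest on retests at 20 µM and on dose response follow-up; 0% = protein and probe with vehicle and 100% = probe without protein; strong numbers were not always called active; many hits fall short of the cut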
# HIV Env fusion: inhibitors of HIV-1 Env-driven cell-cell fusion, primary screen, HeLa-JRFL effector, CEM21 target cells, luciferase. inhibition, % at 12.3 µM. 360,000 tested, 1.1% active. AID 651610, 2012;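 active = mean replicate inhibition score of at least 50 and every replicate individually at or above 50; inconclusive = only one of the two criteria met; inactive = mean below 50 and not all replicates reaching 50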;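 note: 0% = plate neutral controls and 100% = maraviroc near 300 nM; one replicate is shown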
# eIF4H FP inh retest: recorded beside eIF4H FP inh, whose call it bears; inhibition, %; compound at 20 µM; confirmation average;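 mean of two retest wells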
# PABP FP inh retest: recorded beside PABP FP inh, whose call it bears; inhibition, %; compound at 20 µM; confirmation repeats;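 mean of two retest wells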
# MT1-MMP act inh RFP: also measured in MT1-MMP act inh; calls as there; RFP signal change, %; measured here: RFP expression control read;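 0 = vehicle wells; hits needed this value within 50% of zero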
# * hit, by the source's call; i = inactive; ? = inconclusive; · = not tested or not shown.
SMILES,PABP FP inh,MT1-MMP act inh,MT1-MMP act inh RFP,Yeast UUG start,Rce1 inhib,CSC inhib,eIF4H FP inh,HIV Env fusion,others
O=C(NCCN1CCOCC1)c1ccc2c(c1)N(Cc1ccc(F)cc1)C(=O)c1ccccc1S2(=O)=O,-1,-1,3,-14,i,·,0,0,
CCNS(=O)(=O)c1cccc(C(=O)c2c(C)cc3ccccn23)c1,-18,2,-1,·,i,·,15,-31,
COc1ccc(CCNC(=O)CSC2=NS(=O)(=O)c3cc(Cl)ccc3N2)cc1OC,·,-2,-2,-2,i,6,·,-5,
Cc1ccc(Nc2nc(N)nc(CN3CCc4ccccc4C3)n2)cc1,-2,2,1,-9,i,3,5,-30,
c1ccc(-c2nn3cnnc3c3ccccc23)cc1,-16,-1,3,·,i,-15,8,-26,
CC1CN(CC(=O)NCc2ccc(Cl)cc2)CC(C)O1 (centres undefined),6,-1,3,-4,i,-20,5,-12,
COc1cc(/C=C(\C#N)C(=O)Nc2ccc3c(c2)OCCO3)ccc1O,-18,5,0,·,i,8,-7,-25,
CCn1nc(C(=O)N2CCN(Cc3ccc4c(c3)OCO4)CC2)c2ccccc2c1=O,5,-3,1,-6,i,2,3,-28,
CN(CC(=O)Nc1cccc(F)c1)C(=O)CCCc1cccs1,5,-2,2,-13,i,-4,-2,·,
CCNC(=S)N(CCN(CC)CC)Cc1cc2cc3c(cc2[nH]c1=O)OCO3,2,-4,0,-20,i,-11,-8,-18,
CCc1ccc(NC(=S)Nc2cc(C(=O)O)ccc2N2CC3CC(C2)c2cccc(=O)n2C3)cc1 (centres undefined),3,1,2,·,i,-9,-4,-11,
CCCNC(=S)Nc1ccc(Nc2ccccc2)cc1,-3,12,9,-52,i,-2,4,·,
COc1ccc(OC)c(NC(=O)C(CCS(C)(=O)=O)NC(C)=O)c1 (centres undefined),5,1,1,-24,i,-2,3,·,
CC1=C(C(=O)N(C)C)CC(CC(=O)NC2CCCCC2)C(=O)N1Cc1ccc(C(C)(C)C)cc1 (centres undefined),·,-3,0,5,·,·,·,-88,
O=C(CSc1nnc(-c2ccccc2)o1)N1CCOCC1,13,-1,1,-57,i,·,1,-54,
CC1(C)O[C@@H]2[C@H](O1)[C@@H](CO)O[C@H]2n1ccc(=O)[nH]c1=O,·,2,2,-8,·,-16,·,12,
O=C(CSc1nc(O)cc(=O)n1-c1ccccc1)Nc1nc2ccccc2s1,-6,2,1,-7,i,-4,1,67*,
CN(C(=O)c1cc(COc2ccc(F)c(F)c2)on1)C1CCOC1 (centres undefined),-2,0,-2,-25,i,·,-2,-12,
Cc1nn(C)c(C)c1/C=C(/C(=O)C(C)(C)C)n1cncn1,-6,0,-10,-18,i,-10,4,19,
Cc1cnc(C(=O)OCC(=O)c2ccc(C3CCCCC3)cc2)cn1,·,0,3,-16,i,-6,·,10,
O=C(NCCCO)c1c(O)c2cccc3c2n(c1=O)CCC3,3,9,5,5,i,9,0,39,
CC(C)(C)C(=O)NC(=S)NNC(=O)C(c1ccccc1)c1ccccc1,-14,-9,-19,-21,i,58,8,·,
O=C(CCCN1C(=O)C(c2ccccc2)Oc2cccnc21)NCCc1ccc(Cl)cc1 (centres undefined),11,2,-1,·,i,-7,-4,10,
COC(=O)c1ccc(NC(=O)c2cc(-c3ccccn3)nc3ccccc23)cc1,-12,-5,-1,-26,i,-8,-10,-3,
CCOC(=O)N1CCN(S(=O)(=O)c2ccc(F)c(C(=O)Nc3cccc(C)c3C)c2)CC1,0,-3,-7,8,i,-4,4,·,
Cc1ccc(-n2nc(C)c(C(=O)N3CCN(C(=O)c4ccco4)CC3)c2-n2cccc2)cc1,3,1,-3,-9,i,-8,0,-13,
C=CCOc1ccc(CNn2nnnc2N)cc1,-3,3,0,-12,i,10,7,·,
O=C(CSc1nnc(CNC(=O)c2c(F)cccc2Cl)o1)NC1CCCCC1,5,0,3,-16,i,-11,-1,-4,
NS(=O)(=O)c1ccc(NC(=S)NC2CCCCC2)cc1,1,2,2,·,i,·,-7,-7,
CC1CCC2(CC1)NC(=O)N(CC(=O)NCc1ccc(Cl)cc1)C2=O (centres undefined),·,1,2,-21,·,-1,·,7,
CC[C@H](C)[C@H](NC(N)=O)C(=O)NCCc1ccc(OC)cc1,16,-2,0,-23,i,-7,-3,4,
O=C(c1cc2ccccc2oc1=O)N(Cc1cccs1)Cc1ccccc1Cl,0,0,-6,-8,i,1,-5,-36,
O=C(c1ccccc1)C1CCN(C(=O)c2c(F)cccc2F)CC1,6,-6,-1,-12,i,·,-6,23,
OCCN1CCN(CC(O)COCc2ccc3c(c2)OCO3)CC1 (centres undefined),-11,3,2,-6,i,1,-8,·,
COc1ccccc1NC(=S)NNC(=O)c1cc(C)n(C)n1,16,7,4,-29,i,-5,-4,-19,
COCC(=O)N(C)[C@H]1C[C@H]2c3cc(Oc4ccccc4C)ccc3CCN2C(=O)[C@H]1[C@H](C)O,·,-1,2,-5,·,·,·,-102,
CCOC(=O)c1c(CS(=O)(=O)c2ccccc2)n(C)c2cc(Br)c(O)cc12,-3,6,-4,-14,i,-6,-7,31,
CC1(C)Cc2c(c(-c3ccco3)[nH]c(=O)c2C#N)CS1,118,-28,11,-8,i,5,122,-15,eIF4H FP inh retest=42;PABP FP inh retest=41
CC(C)(C)c1ccc(S(=O)(=O)NC(=O)C2(C)CCN2C(=O)CC2CCCC2)cc1 (centres undefined),·,4,2,-5,·,·,·,9,
CCN1CCCC1CNc1ccc(S(C)(=O)=O)cc1[N+](=O)[O-] (centres undefined),-10,3,7,-12,i,-4,4,-7,

# Nothing new here: an excerpt of the list.
SMILES,PABP FP inh,MT1-MMP act inh,MT1-MMP act inh RFP,Yeast UUG start,Rce1 inhib,CSC inhib,eIF4H FP inh,HIV Env fusion,others
COCC(=O)N(C)[C@H]1C[C@H]2c3cc(Oc4ccccc4C)ccc3CCN2C(=O)[C@H]1[C@H](C)O,·,-1,2,-5,·,·,·,-102,
CCOC(=O)c1c(CS(=O)(=O)c2ccccc2)n(C)c2cc(Br)c(O)cc12,-3,6,-4,-14,i,-6,-7,31,
CC1(C)Cc2c(c(-c3ccco3)[nH]c(=O)c2C#N)CS1,118,-28,11,-8,i,5,122,-15,eIF4H FP inh retest=42;PABP FP inh retest=41

# Later entries:
SMILES,PABP FP inh,MT1-MMP act inh,MT1-MMP act inh RFP,Yeast UUG start,Rce1 inhib,CSC inhib,eIF4H FP inh,HIV Env fusion,others
CN(C)CCCNC(=O)c1cccc(-c2ccc3nccn3c2)c1,·,4,9,-14,·,·,·,-5,
CCCn1c(C)cc(C(=O)COc2ncnc3sccc23)c1C,2,-1,0,-14,i,-6,-6,·,
O=C(N/N=C\C=C\c1ccc2c(c1)OCO2)c1ccc(F)cc1,-1,4,5,-3,i,-2,4,-9,
CCCCOc1ccc(N(CC(=O)NCC2CCCO2)C(=O)CCC(=O)Nc2nccs2)cc1 (centres undefined),-12,7,2,·,i,-7,-8,24,
CC[C@@]1(c2ccccc2OC)C(=O)N(C(=O)OC)N1C(=O)OC,7,4,1,-15,i,8,8,·,
CC1CN(S(=O)(=O)c2ccc(C(=O)Nc3sccc3C(N)=O)cc2)CC(C)O1 (centres undefined),-1,-1,-16,·,i,1,2,26,
COc1ccc(CN(CC(=O)NCCC(C)C)C(=O)CCC(=O)Nc2nccs2)cc1,-6,-1,2,-11,i,5,0,13,
CC1=CC(C)(C)NC(=S)N1c1ccccc1,6,-2,4,-28,i,-5,-3,·,
Fc1cccc(NC(=S)N2CCn3cccc3C2c2cccnc2)c1 (centres undefined),-7,-4,2,-22,i,7,0,-7,
CN1N=C2c3ccccc3CCC2C1c1ccc(F)cc1 (centres undefined),4,1,3,-17,i,-7,5,-1,
COc1ccc(OC)c(NC(=O)c2ccc3c(c2)C(=O)N(CC2CCCO2)C3=O)c1 (centres undefined),-8,-2,-4,-30,i,·,1,-4,
Cc1ccc(-c2ccccc2[C@@H]2C[C@H]3CN(C)C(=O)[C@]34CCCN24)o1,-5,6,7,-26,i,-2,3,13,
C/C(=N/OCO/N=C(\C)c1ccc(F)cc1F)c1ccc(F)cc1F,14,-6,6,·,i,-7,-7,·,
COc1ccc(OC)c(S(=O)(=O)N(C)CC(=O)Nc2ccccc2OC)c1,-3,2,2,-6,i,-13,-10,·,
CC(C)(C)C(=O)NCCCNc1ccc([N+](=O)[O-])cc1,2,7,-1,1,i,-4,-3,-8,
FC(F)(F)c1nc(N2CCCC2)ncc1-c1nnnn1-c1ccccc1,-10,-3,-15,-1,i,·,-8,?,
C=CCNc1ncnc2c1[nH]c1ccccc12,2,4,-13,-19,i,-14,-2,·,
O=C(CSc1ncn(-c2ccccc2)n1)NCc1ccccc1,-7,-5,-2,0,i,-7,-8,-19,
CN(C)c1ccc(C2C3CCCc4ccccc4C3=NN2C)cc1 (centres undefined),7,3,1,·,i,20,-9,-40,
CCOC(=O)C(NC(=O)CC)C(O)c1cccc([N+](=O)[O-])c1 (centres undefined),-11,0,3,-8,i,-10,-2,·,
Cc1ccccc1N1CCN(S(=O)(=O)CC23CCC(CC2=O)C3(C)C)CC1 (centres undefined),-4,1,-5,-6,i,12,-3,-5,
CCCNc1ccc(S(=O)(=O)N(CC)CC)cn1,-1,1,5,-9,i,-1,-2,-19,
O=C(NC1CCCC1)C(c1cccs1)N(C(=O)c1csnn1)c1ccccc1F (centres undefined),2,-1,1,3,i,·,-16,-3,
CCc1nc(C)ccc1OCC(=O)N1CCc2c([nH]c3ccccc23)C1c1ccccn1 (centres undefined),2,-5,-5,·,i,-14,-5,11,
Cc1ccc(OCc2occc2C(=O)O)cc1,·,-1,3,-24,·,·,·,12,
O=c1c(Cc2c(F)cccc2Cl)c(O)ccn1C1CCCCCC1,-7,-5,-8,·,i,-4,-1,5,
Cc1ccc(NC(=O)CCS(=O)(=O)c2cccc3nonc23)cc1,-4,1,0,·,i,-6,0,-5,
CCC(CO)Oc1cc(NCc2cccc(OC)c2)c2ncn(C(C)C)c2c1 (centres undefined),·,4,8,-9,·,·,·,-31,
COc1ccccc1NC(=O)COC(=O)CN1C(=O)C(=O)c2ccccc21,11,1,6,5,i,7,-8,7,
CNC(=S)NNC(=O)c1cccn(Cc2ccc(Cl)cc2Cl)c1=O,12,·,·,·,i,1,-7,?,
CCCC/C(O)=C1\C(=O)CC(C)(C)CC1=Nc1ccccc1OC,-10,0,-5,-21,i,-2,-7,·,
O=C(CNC(=O)c1ccncc1)N/N=C/c1ccc(O)cc1O,5,4,6,-17,i,10,12,15,
CC(=O)N1c2ccc(S(=O)(=O)N3CCC(C(=O)N4CCC(C)CC4)CC3)cc2CC1C (centres undefined),·,-2,-7,·,i,12,·,-6,
CCOc1ccc(C2SCC(=O)N2c2c(C)n(C)n(-c3ccccc3)c2=O)cc1 (centres undefined),-2,3,7,-6,i,-7,4,·,
CCOC(=O)C1=CCN(S(=O)(=O)c2ccccc2F)C1c1ccccc1 (centres undefined),·,5,-1,-1,·,·,·,2,
O=C(CNC(=O)c1ccc2ccccc2c1)NCc1ccc(F)cc1,-1,5,0,-10,i,3,7,11,
